High-throughput results as filed in PubChem.
Biofilm kill mix: mixture kills Candida albicans biofilm cells | hit rate 0.02% among 120,000 | inhibition, % at 7.6 µM | C. albicans biofilm persisters + clotrimazole, fluorescence viability; primary screen in compound mixtures of four per well;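 active = inhibition above 30.3% in the primary screen of four-compound pools, then above 30% when the compound was retested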;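 also: compounds exposed to preformed 24 h biofilms for 48 h; the number belongs to the whole pool; some results filed as inactive read as strong as hits; inactives centre near 12; 0% = biofilm with clotrimazole alone and 100% = kill control; retested singly at about 60 µM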
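Test system: C. albicans biofilms. Buffer or medium: RPMI/MOPS medium, pH 7.0. Timing: 48 h compound exposure at 37 °C. Technique: Alamar Blue fluorescence. Evaluation: percent inhibition of biofilm viability.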
* = called active by the depositor. Some of the compounds tested (hit frequency here may not be typical).

canonical_smiles	Biofilm kill mix
CCOc1ccccc1NC(=S)N(Cc1cc2ccc(C)cc2[nH]c1=O)CC1CCCN1CC (centres undefined)	10.4
CC1CCCN(C(=O)c2cccc(S(=O)(=O)Nc3cc(C(F)(F)F)ccc3Cl)c2)C1 (centres undefined)	23.5
COc1ccccc1OCCCCOc1ccccc1C(C)=O	18.5
O=C(COc1ccccc1Cc1ccccc1)NCCCN1CCOCC1	21.3
O=C(NC(Cc1ccccc1)C(=O)Oc1ccc2c(C(F)(F)F)cc(=O)oc2c1)OCc1ccccc1 (centres undefined)	-12.6
CCn1ccnc1CN(C)C(=O)CCc1nnc(CCCc2ccccc2)o1	9.3
CN1CCN(Cc2c(O)ccc3cc(-c4ccccn4)c(=O)oc23)CC1	29.2
CCCC(=O)Nc1nc2ccc(NC(=O)c3ccccc3F)cc2s1	10.0
CC1CC(=O)C2=C(C1)Nc1nc3ccccc3n1C2c1cccnc1 (centres undefined)	21.7
Cc1[nH]c2ccccc2c1C(=O)C(=O)N1CCN(C(=O)c2ccco2)CC1	20.1
Cc1cc(CNC(=O)COc2ccccc2F)c2ccccc2n1	11.8
O=C(Cc1ccc(O)cc1)NCCNC(=S)NCc1ccccc1	13.6
COc1ccccc1C/C(N)=N/O	5.3
O=C1c2cccc3cccc(c23)C(=O)N1OS(=O)(=O)c1ccc(Br)cc1	2.0
Fc1cccc(NC(=S)Nc2cccnc2)c1	12.0
CN1CCN(NC(=O)c2ccc(S(=O)(=O)N3CC4(C)CC3CC(C)(C)C4)cc2)CC1 (centres undefined)	2.1
O=C(/C=C/c1ccc(Cl)c([N+](=O)[O-])c1)c1cccnc1	5.4
C=C(C)C(=O)Nc1cccc(C2=NOC3(C2)C[C@@H](C(N)=O)N(C(=O)c2ccc(Cl)cc2)C3)c1 (some centres undefined)	10.1
COc1ccc2c(c1)c(=O)oc1cc(O)ccc12	19.4
COc1cccc(C2C3=C(N=c4s/c(=C\c5ccc(O)cc5)c(=O)n42)c2ccccc2CC3)c1OC (centres undefined)	8.8
N#C/C(=N\Nc1ccccc1)C(=N)N1CCOCC1	27.6
Cc1cccc(Nc2nc(N3CCN(C)CC3)nc(N)c2[N+](=O)[O-])c1	16.9
CC(=O)Nc1cccc(-n2nnc(SCC(=O)Nc3ccc(F)c(Cl)c3)n2)c1	20.0
Cc1ccc(NC(=O)COC(=O)c2ccc3c(c2)OCCO3)cc1S(=O)(=O)N1CCOCC1	12.4
O=C(Nn1cnnc1)c1ccc(Br)s1	13.6
COc1ccc(CC(=O)NCc2n[nH]c(=S)n2C)cc1	11.1
C#CCOCCOCCOCCNc1nc(N2CCN(C(=O)[C@H]([C@@H](C)O)n3cc(CCCCN)nn3)CC2)nc(N2CCN(C(=O)[C@H](Cc3ccc(O)cc3)n3cc(CCO)nn3)CC2)n1	1.1
O=C(O)c1ccc(C(=O)C(=O)c2ccccc2)cc1	17.8
O=C(NCc1cccnc1)C(=O)NCC(c1ccco1)N1CCOCC1 (centres undefined)	0.0
S=C(NCc1cccnc1)Nc1ccc(Cl)cc1Cl	14.9
O=C(CNC(=O)c1ccccc1F)N/N=C/c1cn[nH]c1-c1ccccc1	13.8
O=C(Cn1cncc1-c1ccc([N+](=O)[O-])cc1)Nc1ccccc1F	17.2
COc1ccc(CC(=O)Nc2c3c(nn2-c2ccccc2C)CS(=O)C3)cc1 (centres undefined)	10.1
COc1ccccc1NS(=O)(=O)c1ccc2oc(SCc3ccc(F)cc3)nc2c1	15.2
Cc1ccc(Cl)cc1NC(=O)COC(=O)c1ccc(COc2ccc3c(C)cc(=O)oc3c2)cc1	5.5
CC1(C(=O)N(Cc2ccccc2)Cc2ccccc2)CC1(Br)Br (centres undefined)	13.8

3 of these compounds, set out differently.
Structure: S=C(NCc1cccnc1)Nc1ccc(Cl)cc1Cl
  Biofilm kill mix: 14.9

Structure: O=C(CNC(=O)c1ccccc1F)N/N=C/c1cn[nH]c1-c1ccccc1
  Biofilm kill mix: 13.8

Structure: O=C(Cn1cncc1-c1ccc([N+](=O)[O-])cc1)Nc1ccccc1F
  Biofilm kill mix: 17.2

(listing goes on)
canonical_smiles	Biofilm kill mix
COc1cccc(C(=O)Nc2ccc(C(=O)NCC(C)C)cc2)c1	11.3
COc1ccc2c(CC(=O)OCC(=O)Nc3cc(C)c(C)cc3[N+](=O)[O-])coc2c1	9.1
CCOC(=O)c1c(NC(NC(=O)C(C)C)C(Cl)(Cl)Cl)sc2c1CCC2 (centres undefined)	17.0
COc1ccc(N2CCN(C(=O)c3cc4c(s3)-c3ccccc3S(=O)(=O)C4)CC2)cc1	12.7
O=C(COc1ccc(Cl)cc1)Nc1nnc(C2=COCCO2)o1	21.9
CCC(C)NC(=O)CSc1n[nH]c(-c2cc(Cl)ccc2OC)n1 (centres undefined)	2.9
Cc1cc(-c2nnc(SCC(=O)Nc3ccccc3Cl)n2C)no1	20.8
C=CCSc1nnc(NC(=O)c2cccc(S(=O)(=O)N(C)c3ccccc3)c2)s1	9.7
CCc1nc2cc([N+](=O)[O-])c([N+](=O)[O-])cc2[nH]1	13.1
COc1ccc(CCNC(=O)COC(=O)CCC(=O)c2ccc(F)cc2)cc1	10.3
Cc1cccc(OCC(=O)Nc2ccccc2C(=O)N2CCOCC2)c1	27.5
CCOC(=O)c1cc(=O)[nH]c2ccccc12	20.2
COc1ccc(Sc2nc(-c3ccccc3)ncc2C(=O)O)cc1	7.5
COC(=O)c1c(C)noc1-c1ccc(Cl)cc1	14.5
O=[N+]([O-])c1ccc(-c2nnc(-c3ccccc3)c(NCCCO)n2)cc1	17.3
O=C(Nc1nc2ccc(SC(F)F)cc2s1)c1ccc2c(c1)S(=O)(=O)c1ccccc1C2=O	13.7
Nc1nc(-c2ccccc2)[nH]c(=O)c1N=O	21.0
O=C(CCN1C(=O)/C(=C/c2cccs2)SC1=S)NNC(=O)c1cccc(O)c1	3.1
Fc1ccc(NC(=S)N2CCN(C/C=C/c3ccccc3)CC2)c(F)c1	-7.5
Cc1ccccc1C(=O)OC1OC(=O)C(Cl)=C1Nc1ccc(C(=O)O)cc1 (centres undefined)	-3.6
COC(=O)c1ccnc(SCC(=O)c2ccccc2)c1	18.8
O=C(NN1C(=O)c2ccccc2NC1c1ccc([N+](=O)[O-])o1)c1ccccc1 (centres undefined)	13.5
Cc1ccc(S(=O)(=O)NC(CCc2ccccc2)CC(=O)C(C)(C)C)cc1 (centres undefined)	14.6
O=C(C1=C[C@H](c2ccc(Br)cc2)C[C@H](OCc2ccc(CO)cc2)O1)N1CCN(Cc2ccc3c(c2)OCO3)CC1	19.9
O=C(CN1CCOCC1)Nc1cccc(S(=O)(=O)N2CCCCCC2)c1	4.2
COc1ccc(-c2ccc([C@H]3[C@H]4C=CC[C@@H](C)[C@@H]4C(=O)N3Cc3ccccc3)c(F)c2)cc1OC	6.5
COc1ccc(C(=O)N2CCCC(CCC(=O)NCc3ccc(F)c(F)c3)C2)cc1F (centres undefined)	13.8
O=C1CCCCC1C(O)c1ccc(Cl)cc1 (centres undefined)	21.8
NC(=O)CN1N=C(c2cc(Cl)sc2Cl)CSC1=O	10.3
O=C(Cc1ccccc1)Nc1nc2ccccc2s1	16.1
O=C1/C(=C/c2cccs2)SC(=S)N1C1CCS(=O)(=O)C1 (centres undefined)	13.2
NC(=O)c1c(NC(=O)COC(=O)c2ccc(S(=O)(=O)Nc3ccccc3)cc2)sc2c1CCCC2	9.0
CC(=O)NS(=O)(=O)c1ccc(NC(=O)c2ccccn2)cc1	12.3
O=CN1CCN(C(=O)Cc2ccc([N+](=O)[O-])cc2)CC1	-7.7
Cc1noc(C)c1CS(=O)(=O)c1ccc([N+](=O)[O-])cc1	4.3
CCc1nc2ccc(C(=O)Nc3cccc(C(C)=O)c3)cc2nc1CC	15.8
CCOC(=O)c1c(-c2ccccc2)csc1NC(=O)c1cc2ccccc2oc1=O	13.8
CCN(CC)C(=O)c1c(Cl)nc(C)c([N+](=O)[O-])c1C	-5.2
Cc1nonc1NC(=O)CSc1nnc(-c2ccoc2C)n1-c1cccc(Cl)c1	5.8
O=C(CSc1nc2ccccc2n1CCc1ccccc1)NC1CC1	16.1
Cc1ccc(/C=N/NC(=O)c2csc(C)c2)o1	7.5
O=C(NCc1cccc(C(F)(F)F)c1)C1CC(c2ccc(C(F)(F)F)cc2)=NO1 (centres undefined)	15.8
COc1cc(/C=C/C(=O)O)cc2c1OCCO2	16.2
Cc1cccc(/C(N)=N/OC(=O)Cc2cccc3ccccc23)c1	12.7
C/C(=N\NC(=O)c1cc(-c2cccc([N+](=O)[O-])c2)n[nH]1)c1ccc(F)cc1	28.6
COc1ccc(CN2CCC(N(CCc3ccccc3)Cc3ccccc3)CC2)c(OC)c1	13.9
Clc1ccc(-c2nnc(-c3ccco3)nc2N2CCCCC2)cc1	10.5
O=C(NCc1ccccn1)C(=O)NCc1ccccn1	2.7
CCc1ccccc1NC(=O)N1CCc2ccccc21	31.7
Cc1c(/C=N/NC(=O)CNc2ccccc2)c2ccccn2c1C(=O)c1ccccc1	13.9
O=C(CSC1CN(C(c2ccccc2)c2ccccc2)C1)N/N=C/c1ccc(Cl)cc1Cl	21.3
CCn1c(/C=C/c2c[nH]c3ccccc23)nc2ccccc2c1=O	31.2
COc1ccc(C(=O)C2CCCN(Cc3ccc4nonc4c3)C2)c(C)c1 (centres undefined)	25.1
Cc1ccc(S(=O)(=O)NCC2(c3ccccc3)CCOCC2)cc1	4.3
Cc1cc(C(=O)CSc2nnc(-c3ccc4c(c3)OCO4)o2)c(C)n1-c1ccc(F)cc1	19.8
O=C1CC(C(=O)NCCc2ccccc2)SC(=Nc2ccccc2)N1 (centres undefined)	27.0
Cn1c(CNc2cccc(Cl)c2)nnc1SCC#N	8.7
COc1ccc(NC(=O)/C(C#N)=C/c2ccc3c(c2)n(C)c(=O)n3C)cc1	11.7
CN(CC(=O)Nc1ccc(C(N)=O)cc1)CC(=O)Nc1ccccc1Br	17.2
CC(NC(=O)COC(=O)Cc1ccccc1[N+](=O)[O-])c1ccccc1 (centres undefined)	18.1

Remaining list, next part
canonical_smiles	Biofilm kill mix
CCN1CCN(CC(=O)N/N=C/c2ccc(F)cc2F)CC1	18.1
CC(C)(C)c1cnnn1-c1cccc([N+](=O)[O-])c1	24.1
O=C(Cc1cccs1)Nc1nnc(Cc2ccccc2)s1	13.4
CCCCN1CC2=C(C1=O)C(c1ccc(O)cc1)NC(=O)N2C (centres undefined)	12.7
Cc1c(C=O)c2ccccn2c1C(=O)c1cccs1	13.2
O=C(COC(=O)c1cccs1)NCCCc1ccccc1	30.1
Cc1noc(NS(=O)(=O)c2ccc(N/C=C\C(=O)c3ccccc3)cc2)c1C	4.8
OCCN(Cc1ccccc1)C(=S)Nc1ccc(F)cc1	-3.2
COC(=O)c1c(C)[nH]c(C(=O)N2CCN(c3ccc(OC)cc3)CC2)c1C	25.0
Cc1cccc(NC(=S)Nc2ccc(Oc3ccccc3)cc2)n1	18.6
O=C(O)c1ccc(CSc2nnc(-c3ccccc3Cl)n2-c2ccccc2)cc1	10.1
Cc1n[nH]c(=O)n1-c1ccc(C(C)(C)C)cc1	7.1
COc1ccc(C2CC(c3ccccc3OC(C)=O)=NN2C(=O)/C=C/c2ccccc2)cc1 (centres undefined)	18.5
Cn1c2ccccc2c(=O)c2c(=O)n(Cc3ccco3)c(-c3ccc(C(C)(C)C)cc3)nc21	28.1
CCOC(=O)C1C(C(=O)Nc2cccc(C(F)(F)F)c2)C1C(=O)NC(C)C (centres undefined)	5.8
Cc1noc(C)c1S(=O)(=O)Nc1cc(C(F)(F)F)ccc1N1CCOCC1	20.2
CSc1nn2c(C(F)(F)F)cc(C(F)(F)F)nc2c1C(N)=O	3.5
COc1ccc(NC(=O)CSc2c3c(nc4ccccc24)CCCC3)c(OC)c1	18.7
Cc1cc(C)c(S(=O)(=O)C(C)C)c(=O)[nH]1	18.6
CCCCNCC(=O)Nc1sc(C)c(C)c1C(=O)OCC	9.2
COc1ccc(-n2c(=O)c3ccccc3n(Cc3ccccc3F)c2=O)cc1OC	14.9
COC(=O)c1cn(NC(=O)Cc2ccc(Cl)c(Cl)c2)c(=O)c2ccccc12	4.2
O=C(NNC1=NC2(CCCC2)Cc2ccccc21)c1ccncc1	11.1
C/C(=N\NC(=O)CCc1ccc(S(=O)(=O)N2CCOCC2)cc1)c1ccc(Br)cc1	18.4
O=C(Cc1cccs1)Nc1nnc(SCc2cccc3ccccc23)s1	12.7
Cc1cccc(NC(=O)c2cc([N+](=O)[O-])ccc2N2CCN(C)CC2)c1	29.0
Cc1cc(C)n(-c2n[nH]c(C)c2[N+](=O)[O-])n1	6.5
C=CCON/C(CCC)=C1\C(=O)CC(C)(C)CC1=NC	5.2
C=CCN(CC(O)c1cccc([N+](=O)[O-])c1)C(C)CCc1ccccc1 (centres undefined)	13.0
NNC(=O)c1csc(-c2cccc(C(F)(F)F)c2)n1	9.0
O=C(/C=C/c1cccs1)NC1CC1	11.1
COc1ccc(S(=O)(=O)/N=C2/NC(=O)/C(=C\c3ccco3)S2)cc1	14.2
Nc1ccccc1C(=O)NCc1ccc(F)cc1	10.1
